# eIF4H FP inh: human eIF4H binding inhibitors, primary screen, translation initiation inhibitor project, biochemical, uHTS, fluorescence polarization; Eukaryotic translation initiation factor 4H (Homo sapiens), Q15056; eIF4H fluorescence polarization binding assay; inhibition, % at 35 µM; 290,000 compounds, 0.94% hits;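 active = 50% or more with normal probe brightness, or confirmed in later tests; inconclusive = above 50% with abnormal brightness, or retests that disagree; inactive = below 50% or failed in later tests; about a fifth of its hits are not listed in these tables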;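 also: calls also rest on retests at 20 µM and on dose response follow-up; 0% = protein and probe with vehicle and 100% = probe without protein; strong numbers were not always called active; many hits fall short of the cut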
# CSC inhib: cancer stem cell viability inhibitors, primary screen, luminescence | cancer stem cell-like cells viability | inhibition, % at 7.5 µM | 300,000 compounds, 1.1% hits;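 active = mean at 75% or more and at least half the replicates too; inconclusive = mean and replicates disagree; tested in HMLE shEcad cells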;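 also: 0% = median of negative and 100% = median of positive control wells; the first replicate is given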
# Rce1 inhib: yeast Rce1p protease inhibitors, primary screen, biochemical, fluorescence, cell-free homogeneous | CAAX prenyl protease 2 (Saccharomyces cerevisiae (strain ATCC 204508 / S288c)), Q03530 | yeast membranes, quenched prenylated peptide cleavage fluorescence | calls only | 290,000 compounds, 0.27% hits | AID 2563, 2010;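 active = fall in fluorescence gain of 50% or more versus controls, with final raw signal at or below 3038400; inconclusive = same 50% fall but final raw signal above 3038400; inactive = fall in fluorescence gain under 50%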;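 also: plate controls were neutral control wells for no effect and wells lacking membranes for full effect; tested at 10 µM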
# PABP polyA inh: PABP poly(A) RNA binding inhibitors, primary screen, biochemical, fluorescence polarization, uHTS; Polyadenylate-binding protein 1 (Homo sapiens), P11940; inhibition, % at 35 µM; 290,000 compounds, 1% hits;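 active = 50% or more with normal probe brightness, or confirmed in later tests; inconclusive = above 50% with abnormal brightness, or retests that disagree; inactive = below 50% or failed in later tests; about a fifth of its hits are not listed in these tables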;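 also: calls also rest on retests at 20 µM and on dose response follow-up; controls were probe without protein and protein plus probe with vehicle; some compounds called inactive have numbers as strong as hits; many hits fall short of the cut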
# Target sequence (P11940 whole entry, looked up): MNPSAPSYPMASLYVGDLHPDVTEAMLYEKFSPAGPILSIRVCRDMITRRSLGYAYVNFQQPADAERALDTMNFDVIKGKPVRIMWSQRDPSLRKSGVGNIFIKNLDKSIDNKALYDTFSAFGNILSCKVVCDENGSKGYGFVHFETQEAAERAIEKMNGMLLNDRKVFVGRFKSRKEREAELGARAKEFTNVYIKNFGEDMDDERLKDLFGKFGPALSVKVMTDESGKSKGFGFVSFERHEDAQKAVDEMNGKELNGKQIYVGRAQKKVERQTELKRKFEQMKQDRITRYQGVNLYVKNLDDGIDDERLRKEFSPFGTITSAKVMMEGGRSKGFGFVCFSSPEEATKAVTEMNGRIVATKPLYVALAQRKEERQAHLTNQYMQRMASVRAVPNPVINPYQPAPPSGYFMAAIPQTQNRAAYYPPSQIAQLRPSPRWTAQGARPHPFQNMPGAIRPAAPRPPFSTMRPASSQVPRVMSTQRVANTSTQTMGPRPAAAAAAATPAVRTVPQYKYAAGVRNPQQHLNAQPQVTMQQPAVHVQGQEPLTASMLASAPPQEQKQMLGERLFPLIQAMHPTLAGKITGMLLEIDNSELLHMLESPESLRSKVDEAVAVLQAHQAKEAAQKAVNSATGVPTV
# UUG fidelity: modulators of yeast start codon fidelity, primary screen, whole organism, S. cerevisiae, single point, plate reader; S. cerevisiae UUG-firefly luciferase reporter, luminescence/redox ratio; 350,000 compounds, 0.13% hits; activity score, % at 18.7 µM;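 active = replicate mean at a twofold rise or more, about +100% in these data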;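 also: firefly luciferase made from a UUG start codon reports start codon fidelity; reporter light over untreated wells divided by growth signal over untreated wells; some hits fall short of that in this replicate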
# MT1-MMP act inh: blockers of MT1-MMP proenzyme processing, primary screen, HT1080 RFP-PRO-GFP cells, GFP/RFP fluorescence; GFP/RFP ratio fluorescence, overnight; percent of plate control window, DMSO zero; GFP/RFP ratio change, % at 20 µM; Matrix metalloproteinase-14 (Homo sapiens), P50281; 360,000 compounds, 0.061% hits;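 active = GFP/RFP ratio change of at least 30% with cell ATP level not reduced by more than half and red fluorescence within 50% of control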; also: strong numbers were not always called active
#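 Test system: HT1080 RFP-PRO-GFP cells; Benchmarks: DMSO and RFP-L50D-GFP cell wells; Timing: cells overnight before dosing, compound overnight, 37 °C, 5% CO2; Compound: one 20 µM compound dose with 1% DMSO; Read-out: GFP/RFP fluorescence ratio.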
# HIV Env fusion: inhibitors of HIV-1 Env-driven cell-cell fusion, primary screen, HeLa-JRFL effector, CEM21 target cells, luciferase; inhibition, % at 12.3 µM; AID 651610, 2012; 360,000 compounds, 1.1% hits;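 active = mean replicate inhibition score of at least 50 and every replicate individually at or above 50; inconclusive = only one of the two criteria met; inactive = mean below 50 and not all replicates reaching 50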;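 also: 0% = plate neutral controls and 100% = maraviroc near 300 nM; one replicate is shown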
# eIF4H FP inh retest: recorded beside eIF4H FP inh, whose call it bears; inhibition, %; compound at 20 µM; confirmation average;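 mean of two retest wells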
# PABP polyA inh retest: recorded beside PABP polyA inh, whose call it bears; inhibition, %; compound at 20 µM; confirmation repeats;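 mean of two retest wells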
# MT1-MMP act inh RFP: second read-out of MT1-MMP act inh, no call of its own (marks repeat the call); RFP signal change, %; measured here: RFP expression control read;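 0 = vehicle wells; hits needed this value within 50% of zero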
# * marks the source's active call; other numbers are inactive results; i = inactive; ? = inconclusive; . = no result given.
SMILES,eIF4H FP inh,CSC inhib,Rce1 inhib,PABP polyA inh,UUG fidelity,MT1-MMP act inh,MT1-MMP act inh RFP,HIV Env fusion,others
O=C1N(Cc2cccnc2)C[C@@H]2C[C@@H](c3ccccc3C(F)(F)F)N3CCC[C@@]123,-9,11,i,3,2,4,0,-3,
CC12CCC(/C(=C/NNc3ccc([N+](=O)[O-])cc3[N+](=O)[O-])C1=O)C2(C)C (stereo not given),.,.,.,.,2,11,-3,51,
COc1ccc(NC(=O)CC2C(=O)N(c3cccc(OC)c3)C(=O)N2C2CCCCC2)cc1 (stereo not given),-8,-13,i,-3,2,3,0,25,
N#Cc1cc(N2CCOCC2)nc2ccccc12,-3,16,i,-4,3,-2,2,0,
CCCN(CC(=O)Nc1ccc(F)c(F)c1F)C(=O)c1cc([N+](=O)[O-])ccc1N1CCOCC1,.,-3,i,.,29,0,-4,-19,
O=C(COC(=O)c1cc([N+](=O)[O-])ccc1N1CCOCC1)Nc1ncc(Cl)cc1Cl,35,8,i,31,8,0,6,-1,
O=[N+]([O-])c1cc(-c2csc(NCCc3nc4cc(C(F)(F)F)ccc4n3CCCO)n2)ccc1Cl,.,1,i,.,-4,15,-8,12,
Nc1c(N(Cc2ccccc2)C(=O)COc2ccc(F)cc2)c(=O)[nH]c(=O)n1Cc1ccccc1,-5,9,i,-13,-4,0,-1,-10,
CS(=O)(=O)c1cccc(NC(=O)C2CCCN2S(=O)(=O)c2ccc(F)cc2)c1 (stereo not given),0,-10,i,2,-17,1,2,1,
COc1ccc(O)c(CN2CC3CCC(CC3)C2)c1,.,.,.,.,-19,1,2,21,
CC(NC(=O)/C=C/c1ccc(Br)cc1)c1ccccc1 (stereo not given),0,1,i,102,-10,0,-1,10,eIF4H FP inh retest=-8;PABP polyA inh retest=6
O=C(O)c1ccc(/C=C2\SC(=S)N(Nc3ccccc3)C2=O)cc1,-1,8,i,1,-5,-10,-9,4,
O=C1CCCC(O)=C1C=Nc1ccc2c(c1)oc1ccccc12,4,4,i,13,-9,2,3,.,
O=C(Oc1cc(-c2ccccc2)no1)c1ccc(Cl)cc1,5,-2,i,1,-12,4,2,.,
c1ccc(C2CCC(N3CCNCC3)CC2)cc1 (stereo not given),-10,31,i,-9,.,-10,0,4,
COc1ccc(-n2nc3c(c2NC(=O)CCCCl)CSC3)cc1,-9,-6,i,-1,-10,1,3,-12,
NCCCNC(=O)c1cc2ccccc2[nH]1,-7,-11,i,-5,-6,5,5,.,
CC(=O)c1c(N2CCN(Cc3ccc4c(c3)OCO4)CC2)nc(=S)n(-c2ccccc2)c1C,8,-8,i,11,-17,-7,-1,.,
COc1ccccc1NC(=O)Nc1nc(CC(=O)Nc2cccc(F)c2)cs1,.,-1,i,.,-19,5,-7,2,
CCN1CCCC1CNC(=O)c1ccc(CS(=O)(=O)c2ccccc2C)o1 (stereo not given),3,-12,i,6,-16,3,4,.,
Cc1cc(O)c(/C=N/Nc2ccc(F)cc2)c(=O)o1,8,16,i,3,-17,1,6,28,
O=c1c(-c2ccc(Br)cc2)coc2c(CN3CCOCC3)c(O)ccc12,2,-4,i,-5,-15,1,0,.,
Cc1ccc(/C=N/n2c(C)cc(C)c(C#N)c2=O)o1,-2,-1,i,-3,-9,4,3,6,
CCN(CC(=O)NCc1ccc(F)cc1)C(=O)c1ccc(C(=O)c2ccccc2)cc1,1,14,i,-1,-2,-1,-8,-5,
Cc1cccc(-n2c(SCC(=O)Nc3nnc(C)s3)nnc2-c2ccoc2C)c1,-4,-6,i,-5,-8,0,-3,.,
CCOC(=O)c1c(NC(=O)CSc2nnc(-c3ccccc3)n2CC)sc(C(C)=O)c1C,-4,24,i,-6,-16,0,-8,.,
Cc1c(Cl)cccc1NC(=S)NC1CCCC1,1,-2,i,8,-21,2,-7,-42,
O=C1CCCN1c1ccc(S(=O)(=O)Nc2cccnc2)cc1,0,-12,i,20,-12,-2,-2,-107,
NS(=O)(=O)c1ccc(NC(=O)c2ccc(S(=O)(=O)N3CCCCCC3)cc2)cc1,.,-14,.,.,-7,-4,-13,.,
CCCCC[C@H](O)/C=C/C1C(=O)C=C[C@H]1C/C=C\CCCC(=O)OC (stereo not given in full),.,.,.,.,-11,3,0,-1,

# Ordered by number of heavy atoms (largest number first): eleven of the compounds above.
SMILES,eIF4H FP inh,CSC inhib,Rce1 inhib,PABP polyA inh,UUG fidelity,MT1-MMP act inh,MT1-MMP act inh RFP,HIV Env fusion,others
CC(=O)c1c(N2CCN(Cc3ccc4c(c3)OCO4)CC2)nc(=S)n(-c2ccccc2)c1C,8,-8,i,11,-17,-7,-1,.,
CCOC(=O)c1c(NC(=O)CSc2nnc(-c3ccccc3)n2CC)sc(C(C)=O)c1C,-4,24,i,-6,-16,0,-8,.,
CCN(CC(=O)NCc1ccc(F)cc1)C(=O)c1ccc(C(=O)c2ccccc2)cc1,1,14,i,-1,-2,-1,-8,-5,
NS(=O)(=O)c1ccc(NC(=O)c2ccc(S(=O)(=O)N3CCCCCC3)cc2)cc1,.,-14,.,.,-7,-4,-13,.,
COc1ccccc1NC(=O)Nc1nc(CC(=O)Nc2cccc(F)c2)cs1,.,-1,i,.,-19,5,-7,2,
CCN1CCCC1CNC(=O)c1ccc(CS(=O)(=O)c2ccccc2C)o1 (stereo not given),3,-12,i,6,-16,3,4,.,
CCCCC[C@H](O)/C=C/C1C(=O)C=C[C@H]1C/C=C\CCCC(=O)OC (stereo not given in full),.,.,.,.,-11,3,0,-1,
O=C1CCCN1c1ccc(S(=O)(=O)Nc2cccnc2)cc1,0,-12,i,20,-12,-2,-2,-107,
Cc1cc(O)c(/C=N/Nc2ccc(F)cc2)c(=O)o1,8,16,i,3,-17,1,6,28,
Cc1c(Cl)cccc1NC(=S)NC1CCCC1,1,-2,i,8,-21,2,-7,-42,
NCCCNC(=O)c1cc2ccccc2[nH]1,-7,-11,i,-5,-6,5,5,.,

# Additional records
SMILES,eIF4H FP inh,CSC inhib,Rce1 inhib,PABP polyA inh,UUG fidelity,MT1-MMP act inh,MT1-MMP act inh RFP,HIV Env fusion,others
COc1ccc(C(=O)NCc2nnc(SCC(=O)N3CCc4ccccc43)n2Cc2ccccc2)cc1,-13,-8,i,-3,-11,1,0,-6,
CN1CCCC1CCNc1ccc2c(=O)c3ccccc3oc2c1 (stereo not given),-5,52,?,-22,-8,3,-3,.,
COc1ccc(C(C(=O)NCC2CCCO2)N(C(=O)CNC(=O)c2cccs2)c2ccccc2)cc1OC (stereo not given),-4,-9,i,1,-9,0,2,15,
COCCOC(=O)c1c(C)oc2ccc(OC(=O)c3ccc4c(c3)OCO4)cc12,-4,-5,i,-1,-18,.,.,0,
COc1cccc(CNC(=O)C(=O)NCC2CCCN2S(=O)(=O)c2cc(C)ccc2C)c1 (stereo not given),.,1,i,.,3,-4,-2,-9,
CCCSc1nc(-n2ncc(C#N)c2N)c2c3c(sc2n1)CCC(C)C3 (stereo not given),-4,-14,i,-4,-6,-7,-1,.,
Oc1ccc(Br)cc1C=Nc1cccn2cc(-c3ccccc3)nc12,-8,9,i,-2,.,-5,3,-5,
Clc1ccc(Cn2cc(Br)cn2)cc1Cl,-5,-6,i,-7,4,-2,-1,10,
O=C(OCc1ccccc1)N1CCC2CC1c1cc(/C=C/CCCSc3ncccn3)ccc12 (stereo not given),.,.,.,.,7,1,-17,29,
O=C(COC(=O)CNC(=O)c1cc(Cl)cc([N+](=O)[O-])c1)NC(=O)NCc1ccco1,.,-6,.,.,.,1,0,-4,
CN1CCN(C(=O)CSc2nc(-c3cccs3)cc(-c3cccs3)c2C#N)CC1,17,-4,i,6,-17,-21,-7,.,
Cc1ccnn1CCC(=O)N1CCCC(N2CCN(c3cccc(Cl)c3)CC2)C1 (stereo not given),0,-4,i,1,-8,1,-5,3,
Fc1ccc(C2=CC(c3cccs3)n3nnnc3N2)cc1 (stereo not given),3,.,i,-1,-15,-57,-3,10,
Cc1c(C(=O)NCc2ccc([N+](=O)[O-])cc2)sc(=O)n1Cc1ccc(-c2ccccc2)cc1,.,.,.,.,-15,0,-22,10,
COc1ccc(CN(CC(=O)NCC2CCCO2)C(=O)CCC(=O)Nc2cc(C)ccn2)cc1 (stereo not given),-13,.,i,4,.,-1,4,.,
N/C(=N\OC(=O)CCCc1ccccc1)c1ccc([N+](=O)[O-])cc1,-2,2,i,-7,.,1,3,.,
COC(=O)[C@H](Cc1ccccc1)NC(=O)[C@@H](N)CC(=O)OCc1ccccc1,.,3,.,.,10,4,1,8,
COc1ccccc1NC(=O)N1CCC(NC(=O)C2CCCCC2)CC1,0,-7,i,3,-4,0,-2,3,
COc1ccc(Cl)cc1N=Cc1c(O)cc(C)oc1=O,.,5,i,.,-6,-41,11,4,
CCCC(=O)Nc1ccccc1NC(=O)CN(C)S(=O)(=O)c1ccccc1,0,0,i,-2,1,0,0,.,
Cc1nnc(SCC2=C(C(=O)O)N3C(=O)C(NC(=O)COc4ccc(F)cc4)C3SC2)s1 (stereo not given),.,1,.,.,-8,-6,1,.,
CC1(c2ccccc2)NC(=O)N(CC(=O)Nc2cc(Cl)ccc2N2CCOCC2)C1=O (stereo not given),.,1,i,.,5,-1,1,10,
Cc1cccc(N2CC(O)(c3cccs3)[N+]3=C2CCCC3)c1 (stereo not given),-1,13,i,8,-18,-5,-1,9,
O=C(COc1ccccc1)N/N=C/c1ccc2c(c1)OCO2,-7,41,i,6,-14,1,-5,-29,
c1ccc(NCc2cccnc2)cc1,-14,1,.,1,-2,2,3,.,
C=CCNc1ccc(C(=O)O)cc1,7,-12,i,5,-10,-1,3,-11,
COc1ccc(Nc2ncnc3c2c(C)c(C)n3CCO)cc1,6,-11,i,1,-21,5,5,-43,
Cc1nn2c(N3CCOCC3)c3c(nc2c1-c1ccccc1)CCCC3,2,16,i,-3,20,-4,-3,-146,
COc1cc(C(=O)NNC(=O)c2cc(-c3ccccc3)n[nH]2)cc(OC)c1C,.,11,.,.,60,2,-2,.,
CCCCn1c(=O)[nH]c(=O)c2c1nc(CN(C)Cc1cccc(OC)c1OC)n2CCC,13,-2,i,8,-1,-3,-5,-12,
CCOc1ccc(S(=O)(=O)N2CCN(C(=S)NCC3CCCO3)CC2)cc1 (stereo not given),.,-3,i,.,.,2,-4,.,
COc1ccc(OC)c(-n2c(CN3CCC(C(N)=O)CC3)nc3ccccc3c2=O)c1,1,-5,i,-2,0,0,3,20,
COc1cccc(NC(=O)CNC(=O)[C@@H]2Cc3ccccc3CN2C(=O)OC(C)(C)C)c1,-1,-15,i,6,-13,-5,-2,1,

# A portion of the library (hit frequency here may not be typical).
